TRPML1 blocker: blocks the human TRPML1 channel; Q9GZU1; TRPML1-inducible cells, Ca2+ dye fluorescence, FDSS; active compounds read low; inhibition of EC80 agonist-evoked calcium signal; activity change, negative = inhibition, % (concentration not given with the values); 0.02% of 390,000 active; AID 624415; in the data active means activity change below about -50%; inconclusive means about -30% to -50%; inactive means above about -30%;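 also: stimulus is agonist 54-4 at its EC80 concentration; % is scaled to controls: 0 for no effect and ±100 for the full control effect; the text of the record puts the active cut at -80%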
Target sequence (Q9GZU1 whole entry, looked up): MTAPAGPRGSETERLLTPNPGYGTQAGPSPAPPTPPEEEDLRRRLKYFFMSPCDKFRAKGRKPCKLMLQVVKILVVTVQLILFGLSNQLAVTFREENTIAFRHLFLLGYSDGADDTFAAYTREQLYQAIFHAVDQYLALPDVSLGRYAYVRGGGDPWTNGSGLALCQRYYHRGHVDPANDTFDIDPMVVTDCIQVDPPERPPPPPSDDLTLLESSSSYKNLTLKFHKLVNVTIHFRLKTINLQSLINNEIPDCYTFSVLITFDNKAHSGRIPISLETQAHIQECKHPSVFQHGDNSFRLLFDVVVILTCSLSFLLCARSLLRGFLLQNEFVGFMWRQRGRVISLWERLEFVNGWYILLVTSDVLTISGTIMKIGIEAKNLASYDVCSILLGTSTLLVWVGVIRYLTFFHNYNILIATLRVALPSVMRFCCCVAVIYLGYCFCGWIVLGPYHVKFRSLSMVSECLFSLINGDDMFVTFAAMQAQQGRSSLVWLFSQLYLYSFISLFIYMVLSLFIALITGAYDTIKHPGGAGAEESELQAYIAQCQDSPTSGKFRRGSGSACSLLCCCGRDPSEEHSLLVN
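TRPML1-DL cells, Tet-induced overnight (~16 h, 37 °C) at 1,500 cells/well, were loaded with Ca8 no-wash dye plus quencher for 45-90 min at room temperature. Compounds were pinned during FDSS kinetic reading; agonist 54-4 at EC80 (4 uM final) then added.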
CtBP-E1A blk: inhibitors of CtBP/E1A interaction; 0.49% of 340,000 active; AID 651724; AlphaScreen GST-E1A/His-CtBP binding, 1536-well; active compounds read low; control for the full effect not named in the record; activity change, % (test concentration not listed); in the data active means activity change below about -65%; inconclusive means about -30% to -65%; inactive means above about -30%; also: % is scaled to controls: 0 for no effect and ±100 for the full control effect
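Steps: dispense buffer (Tris pH 8.0, NaCl 300 mM, TCEP 1 mM, BSA, Tween 20); add 5X protein mix (GST-E1A, His-CtBP, 125 nM each); pin 23 nL compound; 2 h at 37 °C, dark; add 5X beads (50 ug/mL); 1 h; read.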
Six1-Eya2 blk: inhibitors of human Six1/Eya2 interaction; 0.56% of 360,000 active; AlphaScreen GST-Six1/His-Eya2 binding, biochemical; active compounds read low; control for the full effect not named in the record; Q15475+O00167; activity change, % (no concentration beside the values); in the data active = activity change below about -65%; inconclusive = about -30% to -65%; inactive = above about -30%; also: % is scaled to controls: 0 for no effect and ±100 for the full control effect
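GST-Six1 + His-Eya2 (5X stock: 250/500 nM); Tris pH 8.0, 300 mM NaCl, 0.05% BSA, 0.02% Tween 20; GSH donor/Ni acceptor beads; 1 h 37 °C dark; AlphaScreen readout.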
PINK1 modulator: modulators of PINK1 expression; Potency, µM (highest dose often 76.6 µM), inactives show at the highest dose activation (PINK1 increase), hits mostly activators; AID 624263; PINK1 immunofluorescence, high-content cytometry, 24 h; 0.2% of 410,000 active; active = well fitted activation curve with a large enough effect; inconclusive = small, poorly fitted or top-dose-only effect; inactive = flat fitted curve, though single readings scatter; cell line not stated here;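 also: potency is read from the fitted curve at half-maximal effect; % of control where 0% means no effect; nearly all actives have a fitted effect of over 65% in size; a mitochondrial uncoupler was the plate control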
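Cells are seeded, rested 12 hours, then given compound at five concentrations or DMSO for 24 hours. After fixation, blocking and antibody staining, PINK1 amount and mitochondrial localization are scored; CCCP serves as control.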
TRPML1 ag: activates the human TRPML1 channel; Q9GZU1; TRPML1-expressing cells, Ca2+ dye fluorescence, FDSS; host cell line not named in the record; reference of the full effect not given here; activation, % (concentration not given with the values); 0.12% of 410,000 active; AID 624414; in the data active = activation above about 50%; inconclusive = about 30% to 50%; inactive = below about 30%; also: 0% is about no effect; the text of the record puts the active cut at 80%
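Kinetic FDSS Ca2+ read in Tet-induced TRPML1-DL cells (ABD Ca8 dye plus quencher, 45-90 min RT loading): baseline, then compound, then 110 s agonist window; EC80 agonist 54-4 at 4uM final added afterwards for a 110 s antagonist window.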
D2 ag: activates the human D2 dopamine receptor; P14416; DiscoveRx PathHunter D2 beta-arrestin, luminescence, 90 min; 100% = 57 uM dopamine signal; activation, % (test concentration not listed); 0.084% of 360,000 active; in the data active = activation above about 40%; inconclusive = about 15% to 40%; inactive = below about 15%; also: compound concentration not given in the record; the text of the record calls up to 30% inactive
Target sequence (P14416 whole entry, looked up): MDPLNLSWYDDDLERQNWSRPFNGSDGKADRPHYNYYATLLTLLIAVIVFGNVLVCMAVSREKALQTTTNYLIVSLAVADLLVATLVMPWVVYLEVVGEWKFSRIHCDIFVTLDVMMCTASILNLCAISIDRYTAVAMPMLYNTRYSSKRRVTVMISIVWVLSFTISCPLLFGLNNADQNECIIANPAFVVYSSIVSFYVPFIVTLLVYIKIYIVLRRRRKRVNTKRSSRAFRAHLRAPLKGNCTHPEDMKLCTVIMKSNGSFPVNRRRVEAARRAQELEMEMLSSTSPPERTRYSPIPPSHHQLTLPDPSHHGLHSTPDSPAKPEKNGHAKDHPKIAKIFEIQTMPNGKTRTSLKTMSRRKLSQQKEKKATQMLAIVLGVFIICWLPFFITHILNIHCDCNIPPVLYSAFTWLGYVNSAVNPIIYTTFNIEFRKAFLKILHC
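Agonist mode: compounds alone added to overnight-plated D2 PathHunter cells for 90 min at 37 C, with 57 uM final dopamine (EC100) defining full response. Beta-arrestin recruitment detected by chemiluminescent reagent, read after 1 h at ambient temperature.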
The depositor's hits bear a star; ? = inconclusive; nt = not tested or not shown; & = joins results of further samples; [ ] = remark or other dose. The order is random (roughly 1% active in at least one column).

mol,TRPML1 blocker,CtBP-E1A blk,Six1-Eya2 blk,PINK1 modulator,TRPML1 ag,D2 ag
CC1Sc2ccc(S(=O)(=O)N3CCC(C(=O)N(C)Cc4ccccc4)CC3)cc2NC1=O (stereo not given),-10.1,-4.3,0.9,-1.1%,-0.8,-2.5
NCCCCCc1nnc(SCc2ccc(Cl)c(Cl)c2)o1,-14.1,4.5,7.5,nt,0.0,1.6
O=C(OC1CCCCC1=O)c1cc(Cl)ccc1[N+](=O)[O-] (stereo not given),-2.3,0.0,-1.0,8.6%,-0.2,0.8
O=S(=O)(c1ccc(NC(=S)NN=C(Cc2ccccc2)Cc2ccccc2)cc1)N1CCOCC1,-7.9,nt,-2.2,6.5%,-0.5,10.5
CC(=O)O[C@H]1CC[C@@]2(C)C(=CC[C@H]3[C@@H]4CC[C@H](C(C)=O)[C@@]4(C)CC[C@@H]32)C1,3.6,-1.6,-1.9,-0.3%,-0.6,6.5
CC(=O)Nc1ccc(CC(=O)Nc2ccc3c(c2)OC2(CCCC2)O3)cc1,1.7,-1.5,-6.9,1.8%,-0.4,-4.7
CCCCCn1c(N)c(-c2nc3ccccc3o2)c2c([N+](=O)[O-])nn(CC)c(=O)c21,-16.2,-3.5,5.4,9.1%,-0.3,-0.3
CC(C)(C)n1nc(-c2ccc(Cl)cc2)c2c(N)ncnc21,6.5,-2.9,8.8,-0.8%&1.7%,0.9&0.0,-2.9
CSCC[C@H](NC(=O)[C@@H]1Cc2ccccc2CN1)C(=O)NC[C@H]1CC[C@H](C(=O)O)CC1,nt,-1.9,2.7,0.6%,nt,-3.9
CCOC(=O)c1ccc(N=Cc2nc3ccccc3n2C)cc1,4.3,17.2,-0.3,-0.2%,-0.9,0.7
COc1cccc(NC(=O)Nc2cc(C)ccc2OC)c1,6.8,-1.3,-8.9,6.5%,-0.8,0.4
CC(=O)N1CCc2cc(S(=O)(=O)CCC(=O)NCc3ccc(Cl)cc3)ccc21,31.2&-23.3,-17.6,4.2,4.3%&1.6%,0.2&0.5,-2.8
Cc1cc(CSc2ccccc2C(=O)O)on1,-4.7,5.1,-5.4,-0.3%,0.5,-3.8
Cc1[nH]c2ccc(C(=O)N3CCN(c4ccccn4)CC3)cc2c1C,15.5,nt,-7.8,3.3%,0.1,3.6
CCC(CC)C(=O)Nc1cccc(C(=O)Nc2nccs2)c1,3.9,-2.5,-2.1,nt,0.0,-0.1
CC(=O)Nc1ccc(Sc2ccccc2C(=O)O)c(C(=O)O)c1,0.0,-0.4,6.1,0.9%,0.5,1.2
CCn1c(SCC(=O)NCC2CCCO2)nnc1-c1c[nH]c2ccccc12 (stereo not given),-5.3,3.1,1.4,-2.8%,1.3,-3.4
CN(CC(=O)Nc1ccc(F)c(F)c1F)C(=O)C1CCCCC1,14.0,14.9,6.3,-1.1%,0.1,-1.2
COc1cccc(OCCNc2ccc([N+](=O)[O-])cn2)c1,31.9,-17.6,-10.6,-1.7%,1.6,-2.1
COc1cccc(C(=O)N2CCN(S(C)(=O)=O)CC2)c1,6.0,5.5,9.5,-1.0%,-0.3,-0.1
CCOC(=O)CSc1nc2ccc(NC(=O)c3ccccc3)cc2s1,4.1,nt,nt,2.4%,3.3,nt
O=C1c2cccc3cccc(c23)C(=O)N1CCN1CCN(C(=S)Nc2ccccc2)CC1,4.5,26.8,-11.7,-0.5%,0.1,-2.7
Cc1nn2c(=O)[nH]cnc2c1Cl,-24.3,7.1,-12.5,1.0%,0.2,1.6
CCCCc1nc(SCC(=O)Nc2nnc(C(C)C)s2)n[nH]1,-1.1,2.7,-5.4,5.4%,-0.5,2.9
CCc1cc(-c2nnn(CCC3COCCO3)c2C(C)(C)O)ccc1-c1cn(CCc2c[nH]c3ccccc23)nn1 (stereo not given),nt,-6.2,-9.5,-0.2%,nt,1.7
CN1CCN(Cc2ccc(-c3ccc(Cl)cc3)o2)CC1,9.6,-13.0,-4.2,3.2%[38.3 µM],1.3,0.6
Cc1ccc2c(=O)cc(C(=O)Nc3cccc(Cl)c3C)oc2c1C,4.6,nt,nt,1.3%,-0.6,nt
Cc1ccc(-n2nc(C)cc2Nc2ncc(Cl)cc2Cl)cc1,15.1,-1.3,6.6,4.2%,2.4,-1.7
COc1ccc(S(=O)(=O)N2CCOC2CNC(=O)C(=O)NCc2ccc3c(c2)OCO3)cc1 (stereo not given),11.6,-0.7,-4.4,-0.5%,-0.4,-0.2
Cc1ccc(-c2ccc(CN3C(C)C(=O)N(Cc4cn(CC5CCCCC5)nn4)CCS3(=O)=O)cc2)cc1 (stereo not given),nt,-16.0,-7.6,-0.7%,nt,0.4
O=C(C1CC(c2ccc(F)cc2)=NO1)N1CCCCC1 (stereo not given),-9.4,2.0,1.1,3.0%[38.3 µM],-0.3,-0.3
COc1ccccc1C(=O)N1CCN(C(=O)[C@H]2O[C@@H](n3ccc(=O)[nH]c3=O)[C@H](O)[C@@H]2O)CC1,nt,-12.4,-12.6,1.2%,-0.6,-2.1
CCCn1c(=N)c(C(=O)NCc2cccnc2)cc2c(=O)n3cccc(C)c3nc21,5.7,nt,nt,-0.6%,-0.4,nt
COC(=O)c1cc2c(ccn2-c2ccc(F)cc2)n1Cc1cccc(OC)c1,20.0,-3.7,-15.0,5.3%,0.1,0.8
CC(C)(C)OC(=O)N1CCC[C@H]1C(=O)NCc1ccc(Cl)cc1Cl,-3.8,-4.5,5.4,1.0%,-2.0,-1.6
COC(=O)c1nc(NC(=O)C(C)(C)C)n[nH]1,0.5,4.5,-7.8,0.1%[38.3 µM],0.4,-2.0
CC(C)NC(=S)N1CCC(Cc2ccccc2)CC1,-9.5,0.7,5.2,1.0%,-0.3,-2.0
CCCNC(=O)C1(C)CCCN(Cc2ccccc2Cl)C1 (stereo not given),nt,2.5,2.2,2.8%,-0.6,-3.4
CCCOc1ccc(-c2cc(C(F)(F)F)c(C#N)c(SCCC(=O)O)n2)cc1,6.8,nt,nt,-0.1%,-0.1,nt
COc1ccccc1NC(=O)CSc1nnc(-c2ccoc2C)n1C,-28.7,2.8,7.9,-0.7%,0.8,-2.0
COc1ccc(C(=O)N2CCCCCC2)cc1OC1CCN(C(C)C)CC1,1.0,-2.1,4.0,0.1%,0.7,0.6
CCC(CC)C(=O)Nc1cccc(C(=O)N2CCCC2)c1,-9.6,6.0,3.4,-2.8%[38.3 µM],0.7,-0.2
COC(=O)c1[nH]c2ccc(Br)cc2c1NC(=O)CN1CCCc2ccccc21,-0.7,-14.7,-16.9,?,-0.4,-5.3
CCN(CC)c1cc2c(cc1F)c(=O)c(S(=O)(=O)c1ccc(OC)cc1)cn2Cc1ccccc1,29.8,nt,nt,-1.5%,2.0,nt
Cc1ccc2c(c1)c(C)c(C)n2CC(O)CN1CCCCC1C (stereo not given),8.0,-26.4,-22.5,0.5%,0.3,-0.6
O=C(c1ccc(-c2nc3ccccc3s2)s1)N1CCOCC1,2.1,4.2,5.8,0.9%,0.2,1.6
COc1ccc2c(c1)c(C(=O)CN1CCN(C(=O)c3ccco3)CC1)c(C)n2C,-11.1,-9.2,-2.6,-3.2%[38.3 µM],-0.4,-1.6
O=[N+]([O-])c1ccc(O)c(C(C#Cc2ccccc2)N2CCOCC2)c1 (stereo not given),9.2,-11.6,-7.8,39.8µM*,1.6,4.5
O=C(NCCCn1ccnc1)c1sc2cc([N+](=O)[O-])ccc2c1Cl,27.6,0.0,-6.3,-2.2%,-0.4,2.3
Cc1ccc(CSc2nc3ccncc3n2Cc2nc(-c3ccc(Cl)cc3)oc2C)cc1,-11.4,nt,nt,5.4%,-0.6,nt
CC1=C(C(=O)Nc2ccccc2C)C(c2cccs2)NC(=S)N1 (stereo not given),11.6,-10.9,-1.4,0.2%,0.3,-3.0
O=C(COC(=O)c1cc(-c2ccccc2)nc2ccccc12)NCC1CCCO1 (stereo not given),-5.1,5.9,2.5,1.0%,-0.6,-0.4
Cc1ccccc1-n1c(SCc2ccccn2)nc2n[nH]c(C)c2c1=N,5.9,-9.7,-20.7,0.5%,0.2,0.6
COc1cc(COCC(O)CN2CCCCC2C)cc(OC)c1OC (stereo not given),-25.9,1.6,-4.1,-1.6%,0.7,-1.2
COc1ccc(C(=O)/C=C/c2ccc(OC)c(COc3ccc(F)cc3)c2)cc1,16.8,7.2,0.8,nt,7.1,-3.3
Cc1ccc(OCCCCN2CCCCC2)c(Br)c1,13.6,-14.4,9.7,1.4%,0.8,-5.1
O=C1C2CC=CCC2C(=O)N1c1nc2n(n1)C(c1ccccc1)CC(c1ccccc1)N2 (stereo not given),-10.2,3.4,0.5,-0.9%,0.1,-2.3
O=C(CSc1nncn2c1cc1sccc12)Nc1ccc(Br)cc1F,-2.1,nt,nt,-0.4%,0.2,nt
COc1ccc(/C(O)=C2\C(=O)C(=O)N(c3cc(C)on3)C2c2ccc(OC)c(OC)c2)cc1OC (stereo not given),2.5,0.3,0.8,-1.1%,0.1,-3.7
COc1ccc(C(=O)/C=C/c2ccc(OC)c(Cn3nnc4ccccc43)c2)cc1,42.9,-2.5,0.1,-2.3%,3.0,2.1
CCOc1cc(/C=N\n2nnnc2N)ccc1O,-13.6,nt,-6.3,-0.4%,0.6,-2.6
Cc1nonc1NC(=O)CSc1nnc(-c2ccoc2C)n1C,5.0,6.2,-2.1,-1.1%,0.1,-3.4

Entries of single compounds, looked up by structure. Values in the order: TRPML1 blocker	CtBP-E1A blk	Six1-Eya2 blk	PINK1 modulator	TRPML1 ag	D2 ag
O=C(COC(=O)c1cc(-c2ccccc2)nc2ccccc12)NCC1CCCO1 (stereo not given) is listed as -5.1	5.9	2.5	1.0%	-0.6	-0.4
O=C1C2CC=CCC2C(=O)N1c1nc2n(n1)C(c1ccccc1)CC(c1ccccc1)N2 (stereo not given) is listed as -10.2	3.4	0.5	-0.9%	0.1	-2.3

Compound activity: PubChem, National Center for Advancing Translational Sciences (NCATS)
